From PubChem BioAssay
AID504770: growth inhibitors of E. coli YBA685 in a screen for V. cholerae RctB (chromosome II replication) inhibitors; E. coli YBA685 rctB-dependent plasmid, OD600 growth, 3 h; stronger effect = lower value; z-score (test concentration not listed); hit rate 0.27% among 130,000; AID 504770;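 active means z-score under -2 on both plates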;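 further: wells of about 30 µL received 100 nL stock; score is relative to mean and SD of the test wells; the first replicate is given; strong numbers were not always called active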
CapD inh: CapD enzyme inhibition. hit rate 0.23% among 140,000. purified CapD enzyme, fluorescence intensity read-out; stronger effect = lower value; some hits fall short of the stated cut. z-score (concentration not given with the values);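 active means z-score under -4 in either of two replicates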;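 further: stock transfer was 100 nL into about 40 µL; score is relative to mean and spread of the plate; one replicate is shown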
* hit, by the source's call; i = inactive; x = no result given.

Molecule,AID504770,CapD inh
O=C1CCCC2=C1C(c1cccc(Cl)c1)C1C(=O)c3ccccc3C1=N2 (configuration not stated),-0.55,0.23
COc1ccc(C(=O)OCC2CC2)cc1Br,-0.75,-0.55
CSc1nc2ccc(NC(=O)c3cccc(F)c3)cc2s1,x,-0.24
CC(C)(C)Nc1nc(NC(C)(C)C)nc(N2CCN(c3ccc4nnnn4n3)CC2)n1,x,1.6
C=CCN=C1SC(CC(=O)Nc2ccc(OC)cc2OC)C(=O)N1/N=C/c1ccccn1 (configuration not stated),-1.4,x
CCCS(=O)(=O)c1c(S(=O)(=O)CCC)c2ccccn2c1C(=O)OC,0.2,2.2
COc1cccc(-c2noc(N3CCN(c4ccc(F)cc4)CC3)n2)c1OC,-0.85,-0.2
O=C(CCc1nc(-c2ccccc2)no1)N1CCCCC1,0.25,-0.2
N#Cc1ccc(NC(=O)c2ccccc2C(F)(F)F)cc1,-0.55,0.12
O=C(O)c1cc2cccc3c2n(c1=O)CCC3,x,1.2
CN(Cc1ccc(Cl)cc1)C(=O)c1cc2sccc2nc1C(F)(F)F,x,-0.14
Cc1nc2sc3c(c2c(=O)n1-n1cccc1)CCCC3,-0.05,x
COC(=O)c1c(C(=O)OC)c(-c2ccc(C(C)(C)C)cc2)n2c1CS(=O)C2 (configuration not stated),x,-0.36
COc1ccc(CN(C)C(=O)CSc2nccn2C)cc1OC,-0.35,x
NC(=O)C(c1ccc(Cl)cc1)c1ccc(Sc2ccccc2)nn1 (configuration not stated),x,-0.2

The list goes on, overlapping the part above by five compounds.
Molecule,AID504770,CapD inh
CN(Cc1ccc(Cl)cc1)C(=O)c1cc2sccc2nc1C(F)(F)F,x,-0.14
Cc1nc2sc3c(c2c(=O)n1-n1cccc1)CCCC3,-0.05,x
COC(=O)c1c(C(=O)OC)c(-c2ccc(C(C)(C)C)cc2)n2c1CS(=O)C2 (configuration not stated),x,-0.36
COc1ccc(CN(C)C(=O)CSc2nccn2C)cc1OC,-0.35,x
NC(=O)C(c1ccc(Cl)cc1)c1ccc(Sc2ccccc2)nn1 (configuration not stated),x,-0.2
N#CCCN(Cc1cccs1)C(=O)c1ccc(Cl)cc1,-0.9,-0.68
O=C(NCCN1CCN(c2ccccc2)CC1)c1ccc2nc3ccc(Cl)cc3c(=O)n2c1,0.35,-0.15
O=C(c1ccc(Cl)c(Cl)c1)N1CCc2c([nH]c3ccccc23)C1c1ccccc1 (configuration not stated),x,-0.06
O=C(COC(=O)Cn1c(=O)oc2ccccc21)Nc1cccc2nsnc12,-0.3,x
N#Cc1ccc(C(=O)Nc2cc(C(F)(F)F)ccc2-n2cncn2)cc1,-0.5,x
O=C(C1CCCN(Cc2ccccc2F)C1)N1CCCCC1 (configuration not stated),0.25,7.8
Cc1ccc(-c2csc(-c3cccnc3)n2)cc1,x,6.3
Cc1cc(/C=C2\SC(=S)N(Cc3ccco3)C2=O)c(C)n1-c1ccccc1,-0.85,-0.62
CCOC(=O)/C=C1\SCC(=O)N1C,-0.3,x
CC(O)(CS(=O)(=O)Cc1ccc(Cl)cc1Cl)c1ccccc1 (configuration not stated),x,-0.25
COC(=O)c1scc(S(=O)(=O)C(C)(C)C)c1-n1cccc1,-0.1,0.21
CC(COC(=O)NCCc1ccc(O)cc1)c1ccccc1 (configuration not stated),x,0.43
O=C(c1ccco1)N(Cc1ccco1)c1ccc(O)cc1,-0.15,-1.3
CCc1ccc(N2CCN(S(=O)(=O)N(C)C)CC2)cc1,-0.65,x
CN(C(=O)Nc1cccc(C(F)(F)F)c1)C1CCCCC1,-0.2,-0.41
O=[N+]([O-])c1cc(Cl)ccc1NCCNc1ncc(C(F)(F)F)cc1Cl,x,-0.32
N#Cc1cccs1,0.25,x
COc1ccc(Cl)cc1S(=O)(=O)NC1CCN(Cc2ccnc3ccccc23)C1 (configuration not stated),x,1.2
O=C(Nc1cccnc1)c1cc(-c2ccc(O)cc2)on1,-0.4,-0.67
c1ccc(-c2nc(NC3CCCCC3)s[n+]2-c2ccccc2)cc1,0.6,-0.075
N#CC1=C(N)C(C#N)(C#N)C(c2cccc3ccccc23)C2CN(Cc3ccccc3)CC=C12 (configuration not stated),x,49
Cc1nc2ccccc2c(=O)n1/N=C/c1ccccc1O,0.9,-0.78
O=C(CSc1nc2ccccc2c(=O)n1CCC(=O)N1CCCCC1)c1ccccc1,-0.35,0.13
O=C(CN1CCN(c2ccccc2)CC1)N1c2ccccc2Sc2ccccc21,0.25,-0.005
O=C(Nc1ccc(Cl)c(Cl)c1)c1cc(S(=O)(=O)NCC2COc3ccccc3O2)ccc1F (configuration not stated),x,-0.57
O=C(N=C1SC2CS(=O)(=O)CC2N1c1ccccc1)c1ccccc1 (configuration not stated),-0.65,0.54
COc1ccc(OC)c(COC(=O)NCc2ccc3c(c2)CCO3)c1,x,0.06
C=CCn1c(C2CC(=O)N(c3cc(Cl)ccc3OC)C2)nc2ccccc21 (configuration not stated),-0.25,x
O=C(NCCCN1CCCC1)c1csc2c1CCCCC2,-0.05,1.8
COc1ccc(C(=O)Nc2cc(C(=O)Nc3cc(Cl)ccc3C)ccc2N2CC3CC(C2)c2cccc(=O)n2C3)cc1 (configuration not stated),x,-0.025
O=C(OCc1c(F)cccc1F)N1CC=C(n2c(=O)[nH]c3ccccc32)CC1,x,-0.26
COC(=O)c1sc(N)c(C(=O)OC)c1CSc1nc(C)cs1,-0.6,x
CCc1nc2nc(C)cc(NCCc3ccccc3)n2n1,1.4,-0.045
Cc1ccc(C)c(N(CC(=O)Nc2c(C)n(C)n(-c3ccccc3)c2=O)S(=O)(=O)c2ccccc2)c1,x,-0.58
COCCN(C(=O)NS(=O)(=O)c1ccc(C)cc1)C1CCN(C)CC1,x,-0.27
CC(C)c1ccc(-n2cccc2/C=C2/C(=N)N3C=CSC3=NC2=O)cc1,1.4,-0.44
COC(=O)N1CCC(C(=O)O)CC1,-0.2,-0.26
Cc1nnc(NC2CCCC2)s1,1.9,-0.12
C=CCn1c(N)nc2c1c(=O)n(C)c(=O)n2C,-0.6,x
Cc1ccn(CCC(=O)Nc2ccc(F)cc2F)n1,0,-0.88
C/C(=N\O)C(C)(C)Nc1cc(C(F)(F)F)cc(C(F)(F)F)c1,0.7,2.2
CN(Cc1cc2ccccc2[nH]c1=O)S(C)(=O)=O,-0.95,-0.035
CCC(C)c1ccccc1NC(=O)c1ccc(Cl)nc1 (configuration not stated),-0.3,x
CCOc1ccc(-c2[nH]nc3c2C2(C(=O)Nc4ccccc42)C(C#N)=C(N)O3)cc1OC (configuration not stated),x,0.36
CCn1cc(C(=O)NC2CCCc3ccccc32)c(=O)c2ccc(C)nc21 (configuration not stated),0.25,x
CCc1ccc(C2=CC(=O)C=CC2=O)cc1,-0.15,-0.42
COc1ccc(Cl)cc1NC(=O)CSc1nc2ccccc2n1C(C)=O,x,-0.07
O=C(O)C1C2C=CC(O2)C1C(=O)NC1CCCc2ccccc21 (configuration not stated),-0.35,-0.26
CN(Cn1nc2sc3ccccc3n2c1=S)C1CCCCC1,1.8,x
CC(C)CC(=O)Nc1ncnc2c1C(=O)CC(C)(C)C2,-0.65,-0.15
CC1(C)CC(=O)C2=C(C1)c1c(ccc3ccccc13)NC2c1ccc(-c2ccc([N+](=O)[O-])c(Cl)c2)o1 (configuration not stated),x,2.8
CCn1cnc2sc(C(=O)N3c4ccc(F)cc4CCC3C)c(C)c2c1=O (configuration not stated),x,-0.2
Cc1ccc(S(=O)(=O)Cc2ccc(N)cc2)cc1,-0.8,-0.01
Cc1cc(=O)n2[nH]c(N)nc2n1,x,-0.075
CC(C)(C)C(=O)CC1(O)C(=O)Nc2ccc(Br)cc21 (configuration not stated),-0.25,0.86
O=C(N=c1nc2ccccn2s1)c1ccccc1Cl,-1.2,x
CCN(CC)CN1C(=O)NC2(CCC(C)CC2)C1=O (configuration not stated),1.2,x
CCCCn1c(=O)n(C)c(=O)c2c(=S)nc(-c3cccc(S(=O)(=O)N(C)C)c3)[nH]c21,-0.3,x
COc1ccc(-c2nc(N(C)c3ccccc3)[nH]c(=O)c2C#N)cc1,0.2,9.1
O/N=C/C(=N/O)c1ccccc1,-0.55,-0.16

The results go on:
Molecule,AID504770,CapD inh
O=C(COc1ccccc1Cl)N/N=C/c1ccccn1,x,-0.66
CCOc1ccc(NC(=O)CSc2nc3cc(C(=O)NCc4ccco4)ccc3c(=O)n2C2CCCCC2)cc1,x,-0.24
CCOC(=O)COc1ccc2cc(-c3nc4ccccc4[nH]3)c(=O)oc2c1,-0.25,1.9
O=C(O)c1ccccc1C(=O)NCC1COc2ccccc2O1 (configuration not stated),-0.7,74
CC(Sc1nc(NC(C)(C)C)nc(N(C)C)n1)C(=O)Nc1ccccc1 (configuration not stated),0.25,x
C=CCN1C(=O)c2oc3ccccc3c(=O)c2C1c1ccccc1 (configuration not stated),-0.6,0.38
COc1ccc(C=NNC(=O)C(C)n2cnc3ccccc3c2=O)cc1 (configuration not stated),0.05,0.055
CCn1c(=NC(=O)C(C)C)sc2cc(Br)ccc21,0.7,x
CN(C)c1ccc(C2CC(=O)C3=C(C2)Nc2ccccc2NC3c2cccnc2)cc1 (configuration not stated),1.3,x
Cc1ccc(N2C(=O)C3C(C2=O)C2(C(C)C)C=CC3(C)CC2)cc1 (configuration not stated),x,0.23
CC(=O)NCc1ccc(C(=O)COC(=O)c2ccc(C#N)cc2)o1,0.05,x
CCOC(=O)c1cc2sc(C)cc2n1CC,2.1,x
O=C(c1cc(-c2cccs2)on1)N1CCCC1,0.15,-0.69
CCCCC(=O)Nc1c(C(=O)OCC)[nH]c2ccccc12,-0.95,43
Cc1cc(C)c(O)c(C2(O)C(=O)c3ccccc3C2=O)c1,1.8,-0.14
O=C(NCO)c1ccccc1Cl,-0.75,-0.035
Cc1nc2ccccc2n1CC(=O)OCC(=O)c1cccc(Cl)c1,0.7,-0.59
O=C(c1cccnc1)N(c1ccc(F)cc1)c1nc2ccccc2s1,-1.8,-0.07
COc1cc(C(=O)Nc2ccc3nc(N4CCN(C)CC4)cc(C)c3c2)cc(OC)c1OC,-0.4,0.57
Nn1c(SCC(=O)N2CCCc3ccccc32)nncc1=O,0,x
Cc1nc2cc(Cl)ccc2c(=O)n1-c1ccncc1,0.85,-0.52
C=CC1OC2CCCCC2C2=CCCCC21 (configuration not stated),0,x
COC(=O)C1=NNC2C(=O)N(c3ccccc3F)C(=O)C12 (configuration not stated),x,-0.12
C=CCc1ccc2oc(C(=O)OCC)cc(=O)c2c1O,x,-0.63
O=C(Nc1cccnc1Cl)c1noc2c1CCCCC2,-0.55,0.13
CCOC(=O)c1c(CN2CCN(c3ccccc3C)CC2)n(-c2ccccc2)c2ccc(O)cc12,x,2.2
CCSc1nnc(NC(=O)C23CC4CC(CC(C4)C2)C3)s1,0.95,i
O=C(Nc1ccccc1Br)/C(=C/c1cccc([N+](=O)[O-])c1)NC(=O)c1ccccc1Br,x,-1.1
O=C(O)COCC(=O)Nc1ccc2c(c1)OCCCO2,0.3,0.69
C=C1SC(Nc2cc(C)cc(C)c2)=NC1(C)C,-0.3,0.14
O=C(CSCc1cccc(Br)c1)Nc1ccc2ccccc2c1,1.9,0.29
Cc1c(Cl)cccc1NC(=O)c1sccc1Oc1ccccc1[N+](=O)[O-],x,-0.33
COc1ccc(-c2cc(-c3nnc(COC(=O)CC4CCCC4)o3)c3ccccc3n2)cc1OC,0.65,x
Cc1cc(C)n2nc(SCC(=O)Nc3ccc(C(C)C)cc3)nc2n1,1,0.35
N#Cc1c2c(c(N3CCN(Cc4ccccc4)CC3)n3c1nc1ccccc13)CCC2,x,-0.01
CC(=O)N1c2ccc(S(=O)(=O)N(C)CC(=O)N(C)Cc3ccccc3)cc2CC1C (configuration not stated),1.7,1.3
O=C(O)C1(N2CCCCC2)CCCCC1,-0.7,x
CCC1(CCC(C)C)C(=O)NC(=O)NC1=O,x,-0.11
O=C(OCc1cc(=O)oc2cc(O)ccc12)c1cc(=O)[nH]c2ccccc12,0.6,x
CC(Nc1ccc2c(c1)OCCO2)C(=O)N1CCCC1 (configuration not stated),0.5,x
Cc1nnc(SCC(=O)N(CC(C)C)CC(C)C)[nH]c1=O,0.25,x
CCCN(C(=O)c1cc2c(s1)-c1c(C)cccc1OC2)c1cccc(Cl)c1,-0.8,-0.36
CNc1cc(=O)n(-c2ccccc2)c(=O)n1-c1ccccc1,-0.45,0.89
COc1cccc2sc(N3CCCC3)nc12,1,x
Cn1ccnc1S(=O)(=O)/C(C#N)=C/c1ccc2c(c1)OCO2,1.2,0.62
CC1=C(C(=O)N2CCOCC2)C(c2ccccc2F)C2=C(CC(C)(C)CC2=O)N1 (configuration not stated),0.2,56
CCCN(C(=O)COc1cc(=O)n(C)c2ccccc12)c1ccccc1C,1,0.39
C(#Cc1ccc(-c2nc(-c3ccccc3)c(-c3ccc(-c4ccccc4)cc3)[nH]2)cc1)c1ccccc1,x,50
Cc1cc(-c2nc(C(=O)O)cs2)no1,-0.25,-1.7
N#CCSC1=NS(=O)(=O)c2ccccc2N1,-0.3,x
NS(=O)(=O)c1ccc(NC(=O)CSc2ncccn2)cc1,0.35,x
CC(C)Nc1nc2ccccc2n2cnnc12,-0.4,1.5
CCC(C)(C)C1CCC2(CC1)NC(=S)N(c1ccccc1)N2 (configuration not stated),x,-0.36
